H5N1 antiviral: MDCK cell protection from H5N1 avian flu; 96,000 compounds, 0.07% hits; cytopathic effect, luminescence, 72 h; active compounds read high; no value below 0 was filed and about half of the inactive calls have no number; reference of the scale not given here; AID 740, 2007; inhibition, % at 50 µM; in the data active means inhibition above about 25%
Starred values were filed as active, the others as inactive; i = inactive. This is a subset (hit frequency here may not be typical).

Structure	H5N1 antiviral
Cn1c(-c2ccccc2)cnc1SCc1nc2ccccc2c(=O)[nH]1	i
COc1ccc(NC(=O)C2CC(=O)N(c3cc(C)ccc3C)C2)cc1 (stereo unspecified)	i
O=C(c1cc(Cl)ccc1Cl)N1CCOCC1	i
CCCCCCCCOC(=O)C(NC(=O)CCC(=O)Nc1ccc(S(N)(=O)=O)cc1)C(O)c1ccccc1 (stereo unspecified)	i
O=C(c1cccc(S(=O)(=O)N2CCCC2)c1)c1nnc(-c2ccncc2)o1	0.7
CCOC(=O)Cn1c(CN(Cc2ccccc2)Cc2ccccc2)nc2c1c(=O)n(C)c(=O)n2C	0.1
O=C(Nc1cc(C(F)(F)F)ccc1F)C1CCC1	1.1
Cc1cccc2cc(CN(Cc3ccccc3)C(=O)c3cccc(F)c3)c(Cl)nc12	1.7
Cc1ccc2nsnc2c1S(=O)(=O)Nc1cccc2nsnc12	1.5
CCn1cc(Br)c(C(=O)N2CCN(c3ccccc3)CC2)n1	i
Cc1ccnc(NS(=O)(=O)c2ccccc2)n1	0.3
Cc1nc2ncnn2c(C)c1CCC(=O)N1CCCCC1	0.1
O=C(COc1ncnc2scc(-c3ccc(Cl)cc3)c12)NCc1ccco1	1.7
O=c1nccc(NCc2ccco2)[nH]1	i
CN(c1ccccc1)S(=O)(=O)c1ccc(NC(=S)NC(=O)c2ccccc2)cc1	0.8
Cc1ccc(-n2nc(C)c3c(C)c(CCC(=O)NCc4ccccc4)c(C)nc32)cc1	0.6
NC(=O)c1cc2ccc(O)cc2oc1=Nc1ccccc1	6.4
CCCCCCNC(=O)Nc1ccccc1	i
CN(C)CCCNc1ncnc2c1cnn2-c1ccccc1	i
O=C1CC(c2ccccc2)CC(O)=C1C=NCc1ccc(Cl)cc1 (stereo unspecified)	i
CCOc1ccc(N(CC(=O)NCc2cccc(OC)c2)S(=O)(=O)c2c(C)noc2C)cc1	i
CCCN(CCC)CCNC(=O)C1c2ccccc2C(=O)N(CCOC)C1c1ccc(F)cc1 (stereo unspecified)	0.0
COc1ccc(OCC(O)Cn2c(=N)n(CCN3CCOCC3)c3ccccc32)cc1 (stereo unspecified)	0.1
COc1ccc(CN2C(=O)c3cccnc3C2O)cc1 (stereo unspecified)	1.1
COC(=O)c1sccc1NC(=O)C1C2C=CC(O2)C1C(=O)O (stereo unspecified)	0.9
C#CCNc1nc(C)nc2c1nnn2Cc1ccccc1F	0.9
CSc1nc2ccccc2n1Cc1c(Cl)cccc1Cl	i
CC(C)NC(=O)C1CCN(C(=O)C(C(=O)c2ccccc2)n2cc(Cl)ccc2=O)CC1 (stereo unspecified)	i
CN1CCN(C(=O)C2CCC(CNS(=O)(=O)c3cccc4cccnc34)CC2)CC1 (stereo unspecified)	1.2
COc1ccc(OC)c(N2C(=O)NC(=O)C3(Cc4cc(C)ccc4N(C)C3)C2=O)c1 (stereo unspecified)	i
CCOc1ccc(C(CC(=O)O)NS(=O)(=O)c2ccc(C)cc2)cc1OC (stereo unspecified)	0.6
COc1ccc(OC)c2c1sc(=NC(=O)c1cccc(N3C(=O)CCC3=O)c1)n2C	0.1
CCOC(=O)c1sc(NC(=O)c2cc(S(=O)(=O)N3CCOCC3)ccc2C)nc1C	i
Nc1nc(CSCc2ccccc2)nc(N2CCOCC2)n1	1.0
CCC(C)Nc1c2c(nc3c(-c4ccccc4)c(C)nn13)CCC2 (stereo unspecified)	5.8
Cc1ccc(-c2cnn(-c3cccc(C(F)(F)F)c3)c2N)cc1	i
Cc1cc(Nc2ccccc2)n(-c2ccc(Br)cc2)n1	i
Cc1ccc(C(C(=O)NCCc2ccccc2)N(C(=O)c2csnn2)C2CC2)o1 (stereo unspecified)	i
CCOC(=O)Cc1csc(NC(=O)NC2(C(F)(F)F)Oc3ccc(Cl)cc3O2)n1 (stereo unspecified)	i
CCOC(=O)CCCc1sc(N)nc1-c1[nH]c(=O)[nH]c1C	i
C=CCN1C(=O)/C(=C/c2ccc(N(C)C)cc2)S/C1=N\c1nnc(CC)s1	i
Oc1ccccc1/C=N/n1cnnc1	i
COc1cccc(/C=N/Nc2nn3cnnc3c3ccccc23)c1	1.2
COc1ccc(-n2c(SCC#N)nc3ccccc3c2=O)cc1	i
COc1ccc(NC(NC(=O)c2ccc(OC)cc2)C(Cl)(Cl)Cl)cc1 (stereo unspecified)	4.7
CC1(C)CC(=O)C(C=NCC2CCNCC2)=C(O)C1	0.9
O=[N+]([O-])CC(=Nc1ccc(Cl)cc1)N/N=C\c1oc(O)c2ccccc12	0.1
O=C(COc1ccccc1F)Nc1ccc(S(=O)(=O)NCc2ccco2)cc1	0.1
CCOC(=O)c1sc(NC(=O)CN(CC)CC)c(C(=O)OCC)c1C	i
Cc1ccc(S(=O)(=O)/C(C#N)=C/c2c(N3CCN(C)CC3)nc3ccccn3c2=O)cc1	2.1
O/N=C1/CCCCc2sccc21	0.2
Cc1cccn2c(=O)c3cc(C#N)c(=N)n(CCN4CCOCC4)c3nc12	1.0
O=C(NCCN1CCN(Cc2ccccc2Cl)CC1)Nc1ccccc1	i
COc1ccc(-n2nnc3c(SCC(=O)NCc4ccco4)ncnc32)cc1	1.0
Cc1nc2ccccc2c(=O)n1CC(=O)N1CCOCC1	0.2
COc1ccc(N2CCN(c3nc(NCCO)nc(N4CCOCC4)n3)CC2)cc1	2.3
FC(F)(F)c1cnc(Sc2nnc(-c3cccs3)n2CC2CCCO2)c(Cl)c1 (stereo unspecified)	0.4
CCOc1ccc(N(CC(=O)NCC2CCCO2)S(=O)(=O)c2ccc(OC)c(OC)c2)cc1 (stereo unspecified)	i
O=C(CCl)N(c1ccc(Cl)cc1)c1c[nH]c2ccccc12	i
C=CCc1cc(/C=N\NC(=O)CSc2nnc(CCCc3ccc(OC)c(C)c3)o2)cc(OC)c1O	i

Carrying on:
Structure	H5N1 antiviral
CCN1CCN(CC(=O)Nc2ccc(Cl)c(Cl)c2)C(=O)C1=O	i
Cc1ccc(-c2nnc(CSc3nnc(COc4ccccc4)n3-c3ccc(C)cc3)o2)cc1	1.1
CCCCN(C)C/C(O)=C(\C#N)c1nc(-c2ccccc2)cs1	i
OCC(CO)(CO)n1cnnn1	i
NC(=O)NC1CCCc2c1[nH]c1ccc(Cl)cc21 (stereo unspecified)	i
CCOC(=O)C1=C(C)N=C2SCCC(=O)N2C1c1sccc1C (stereo unspecified)	i
CCCCn1nnnc1SCC(=O)NCc1ccco1	0.5
O=[N+]([O-])c1ccc(N2CCOCC2)nc1	i
O=c1c2ccccc2nc2ccc(NCc3ccco3)nn12	4.7
O=C1c2ccccc2C(=O)N1CCc1nc2ccccc2c(=O)n1-c1ccccn1	i
CCN1C(=O)c2cccc3c(S(=O)(=O)NCc4cccnc4)ccc1c23	3.5
O=C(O)c1ccc(CS(=O)(=O)c2cccc(C(F)(F)F)c2)o1	i
O=C(c1ccco1)N1CCN(C(c2ccccc2Cl)c2nnnn2CC2CCCO2)CC1 (stereo unspecified)	2.0
COc1cc(/C=N/NC(=O)COc2ccc(Cl)cc2)ccc1OS(=O)(=O)c1ccc(C)cc1	i
CC1(C)Cc2c(sc(/N=C/N3CCOCC3)c2C#N)C(C)(C)N1	0.7

Reprinted from above, 5 compounds:
Structure	H5N1 antiviral
CCN1C(=O)c2cccc3c(S(=O)(=O)NCc4cccnc4)ccc1c23	3.5
O=C(O)c1ccc(CS(=O)(=O)c2cccc(C(F)(F)F)c2)o1	i
O=C(c1ccco1)N1CCN(C(c2ccccc2Cl)c2nnnn2CC2CCCO2)CC1 (stereo unspecified)	2.0
COc1cc(/C=N/NC(=O)COc2ccc(Cl)cc2)ccc1OS(=O)(=O)c1ccc(C)cc1	i
CC1(C)Cc2c(sc(/N=C/N3CCOCC3)c2C#N)C(C)(C)N1	0.7

Later entries:
Structure	H5N1 antiviral
O=C(CN1CCN(S(=O)(=O)c2ccc(Br)cc2)CC1)Nc1ccc2c(c1)OCCO2	i
Cc1ccc(-n2nc3ccc(NC(=O)c4ccco4)cc3n2)cc1	i
CCCCCCCNC(=O)COc1ccc2c(c1)C(=O)CC(C)(C)O2	0.7
CN(C)C(=O)CSc1nnc(CCN)o1	0.7
COc1cc(CN2CCC(C(=O)N3CCCC(C)C3)CC2)cc(OC)c1O (stereo unspecified)	i
COc1ccc(-c2nnc(SCC(=O)N(Cc3ccccc3)C(C)(C)C)o2)cc1OC	i
COc1cc(CNc2ccc(C)c(C)c2)cc(OC)c1OC	i
O=c1c(-c2ccnn2-c2ccc(F)cc2)cnc2n1CCS2	i
CC(=O)OCc1c(C(F)(F)F)nn(C)c1Oc1cccc(C(F)(F)F)c1	0.0
CCN(CC)S(=O)(=O)c1ccc(NC(=O)CSc2nnc(-c3ccc(F)cc3)o2)cc1	i
CC1=CC(C)(C)N2C(=O)C3(N=C(N)NC(Nc4ccccc4)=N3)c3cc(C)cc1c32 (stereo unspecified)	i
CNS(=O)(=O)c1ccc(OC)c(-c2nnc3c4ccccc4c(C)nn23)c1	1.8
O=C(Cc1ccccc1)NC(=S)Nc1cc(C(F)(F)F)ccc1Cl	i
C=CCn1c(=O)c(C(=O)Nc2ccccc2C(=O)OCC)c(O)c2ccccc21	0.8
NC(=O)c1sc2nc3c(c(-c4ccco4)c2c1N)CCC3	3.5
COCC(=O)N(Cc1cc2cc(OC)ccc2[nH]c1=O)c1ccccc1OC	1.0
Cc1ccc(S(=O)(=O)N2CCC(=O)N2)cc1	0.0
Cn1c(=O)c2c(nc(Sc3nc4ccccc4n3CC(=O)N3CCCCC3)n2C)n(C)c1=O	1.8
O=C1c2oc3ccccc3c(=O)c2C(c2cccc(O)c2)N1CCCN1CCOCC1 (stereo unspecified)	0.5
O=C(Cn1cc2c(n1)CCCC2)N1CCc2ccccc21	0.4
COc1ccc(-c2nn(-c3ccccc3)cc2C(=O)n2nnc3ccccc32)cc1	0.4
COc1ccc(C(=O)NCc2nc3ccccc3[nH]2)cc1OC	5.5
CCOc1ccc(CCn2c(-c3ccco3)nc3ccccc3c2=O)cc1OCC	1.3
CCCCc1ccc(NC(=O)OC)cc1	i
CCN(CC)CC(=O)c1c[nH]c2ccccc12	i
Cc1cccc(OCC(=O)Nc2ccc(N3CCN(S(C)(=O)=O)CC3)cc2)c1	1.0
Nc1nncn1C(=O)c1ccccc1Cl	i
CCOC(=O)c1sc(NC(=O)CCN2CC(C)OC(C)C2)c(C(=O)OCC)c1C (stereo unspecified)	1.6
CCCc1nc(SC2CCCC2)c2c(=O)n(C)c(=O)n(C)c2n1	3.7
O=C(CSc1nnc2c(n1)[nH]c1ccc(F)cc12)OCc1ccccc1	i
CCCCc1nnc(SCc2ccc(OCC)cc2)n1N	0.5
Cc1cc(NC(=O)c2noc3c2CCCCC3)no1	0.1
CCOC(=O)C(NS(=O)(=O)c1ccc(Br)cc1)C(C)C (stereo unspecified)	0.2
NC(=O)c1cccn1Cc1cccc(Cl)c1	i
CCc1ccc(N(C(=O)c2ccoc2C)C(C(=O)NC2CCCC2)c2ccc(OC)cc2)cc1 (stereo unspecified)	0.1
COc1ccc(C2C(C(C)=O)=C(O)C(=O)N2CCCn2ccnc2)cc1 (stereo unspecified)	0.8
O=C(Cc1cccs1)Nc1nc(-c2ccc(F)cc2F)cs1	0.1
CC1CCCC(NC(=O)COC(=O)Cc2cn3ccsc3n2)C1C (stereo unspecified)	i
O=C(c1nn(Cc2ccccc2)c(=O)c2ccccc12)N1CCN(c2ccccn2)CC1	1.5
COC(=O)c1cccc(N(C(=O)c2cnccn2)C(C(=O)NC2CCCCC2)c2cn(C)nc2C)c1 (stereo unspecified)	0.9
CCc1nnc(NC(=O)CCC(=O)N2CCN(Cc3ccc(Cl)cc3)CC2)s1	0.1
CCOC(=O)c1c(NC(=O)CN(CC)CC)sc2c1CCN(C(=O)OCC)C2	i
CCc1ccc(NCc2nc3ccccc3c(=O)[nH]2)cc1	i
N#Cc1nc(-c2ccccc2F)oc1NCc1ccccc1	0.8
O=C(CN1C(=O)C2C3c4ccccc4C(c4ccccc43)C2C1=O)N1CCOCC1 (stereo unspecified)	i

In another format: 3 of the compounds above
> CCOC(=O)c1c(NC(=O)CN(CC)CC)sc2c1CCN(C(=O)OCC)C2
  H5N1 antiviral: i
> COC(=O)c1cccc(N(C(=O)c2cnccn2)C(C(=O)NC2CCCCC2)c2cn(C)nc2C)c1 (stereo unspecified)
  H5N1 antiviral: 0.9
> NC(=O)c1cccn1Cc1cccc(Cl)c1
  H5N1 antiviral: i

The list goes on:
Structure	H5N1 antiviral
Cc1ccc(-c2cc(-c3ccccc3)nc(Cl)n2)cc1	1.7
O=C1NC(=S)SC1=C1CCCC1	2.3
O=C(c1cccc(F)c1)N1CCN(S(=O)(=O)c2ccc(C(F)(F)F)cc2)CC1	i
COc1cccc(NC(=O)c2nn(C34CC5CC(CC(C5)C3)C4)cc2[N+](=O)[O-])c1	1.6
COc1ccc(C2Nc3ccccc3C(=O)N2Cc2ccccc2)cc1COc1ccccn1 (stereo unspecified)	i
COc1ccc(Cl)cc1-c1nc(-c2ccncc2)no1	0.8
Cc1nc2nc(C)c(CCC(=O)NCCC3=CCCCC3)c(C)n2n1	i
Cc1cc(=O)n(-c2ccc(O)cc2)[nH]1	0.1
O=C(NNC(=O)c1ccccc1O)c1ccc(Cl)cc1	0.7
CCOC(=O)N1CCC(N2Cc3cccc(C(=O)NCc4ccccc4OC)c3C2=O)CC1	i
CCCOc1ccc(N2C(=O)CC(N(CCc3ccc(OC)cc3)C(=O)c3cccc(F)c3)C2=O)cc1 (stereo unspecified)	i
COC(=O)c1ccc(NC(=O)COc2ccc(S(=O)(=O)N3CCCCC3)cc2)cc1	0.2
CC1(C)CN=C(Nc2nc3ccccc3s2)S1	0.1

Source: PubChem BioAssay
